# ALR inh = inhibitors of human ALR sulfhydryl oxidase, primary screen, biochemical, H2O2 detection, HRP-luminol luminescence, single point; FAD-linked sulfhydryl oxidase ALR (Homo sapiens), P55789; purified ALR, DTT oxidation; inhibition, % (no concentration beside the values); 3.8% of 290,000 active; AID 485317, 2010;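 active means mean and each replicate at 75% or more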;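 further: stock transfer was 7.5 nL into about 7.5 µL; 0% = neutral wells and 100% = wells with inactivated enzyme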
# Target sequence (P55789 whole entry, looked up): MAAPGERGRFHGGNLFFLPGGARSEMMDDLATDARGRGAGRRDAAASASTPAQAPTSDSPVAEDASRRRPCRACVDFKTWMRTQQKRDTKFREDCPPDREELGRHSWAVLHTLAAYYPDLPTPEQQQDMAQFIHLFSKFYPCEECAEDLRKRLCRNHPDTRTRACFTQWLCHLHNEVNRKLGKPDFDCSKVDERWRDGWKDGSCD
# FGF22 binding = binders of human FGF22 protein, primary screen, FGF22 synaptogenesis inhibitor project, biophysical, thermal shift, single point; recombinant FGF22 thermal shift, SYPRO orange fluorescence; percent of sucrose octasulfate shift, DMSO zero; calls only at 9.99 µM; 1.5% of 340,000 active; AID 651658, 2012;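 active means melting point raised past a set limit in the mean and every replicate; three in four hits are not shown here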
# Target sequence (Q9HCT0 whole entry, looked up): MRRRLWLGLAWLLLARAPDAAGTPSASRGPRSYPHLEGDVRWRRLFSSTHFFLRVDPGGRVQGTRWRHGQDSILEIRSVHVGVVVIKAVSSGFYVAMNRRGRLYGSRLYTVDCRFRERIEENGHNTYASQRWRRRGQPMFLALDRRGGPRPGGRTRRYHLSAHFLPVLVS
# Beta2AR agonist = beta2AR agonists driving receptor internalization, primary screen, cell-based, FAP fluorogen, flow cytometry | Beta-2 adrenergic receptor (Homo sapiens), P07550 | Am2.2-beta2AR cells; reference of the scale not given here | response, % (no concentration beside the values) | 0.43% of 340,000 active;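 active means response above a set limit, near 3 SD of response in nonfluorescent compounds, cut at about 42% in these data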;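 further: stock transfer was 100 nL into about 11 µL; a reference agonist was the positive control; negative values mostly stem from fluorescent compounds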
# E coli growth = E. coli growth inhibition, primary screen, OD600; Escherichia coli growth, 23 h; hits give low values; OD600 absorbance (concentration not given with the values); 0.21% of 330,000 active;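 active means OD600 absorbance below the run mean of sample wells minus 3.6 SD, in any replicate, cut at about 0.56 in these data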;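 further: stock transfer was 300 nL into about 60 µL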
# HNF4A DNA FP = change in binding of human HNF4A to DNA, primary screen, biochemical, fluorescence polarization, FITC-DNA; Hepatocyte nuclear factor 4-alpha (Homo sapiens), P41235; 1 h; activity change, % at 10 µM; 0.3% of 360,000 active; AID 1224865, 2016; in the data active means activity change above about 30%, passing the limit was not always enough;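 further: controls were the assay level and a saturating level of protein; the project sought stronger binding though the title names inhibitors; some compounds called inactive have numbers as strong as hits; positive values seem to mean higher polarization but the record does not say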
# Target sequence (P41235 whole entry, looked up): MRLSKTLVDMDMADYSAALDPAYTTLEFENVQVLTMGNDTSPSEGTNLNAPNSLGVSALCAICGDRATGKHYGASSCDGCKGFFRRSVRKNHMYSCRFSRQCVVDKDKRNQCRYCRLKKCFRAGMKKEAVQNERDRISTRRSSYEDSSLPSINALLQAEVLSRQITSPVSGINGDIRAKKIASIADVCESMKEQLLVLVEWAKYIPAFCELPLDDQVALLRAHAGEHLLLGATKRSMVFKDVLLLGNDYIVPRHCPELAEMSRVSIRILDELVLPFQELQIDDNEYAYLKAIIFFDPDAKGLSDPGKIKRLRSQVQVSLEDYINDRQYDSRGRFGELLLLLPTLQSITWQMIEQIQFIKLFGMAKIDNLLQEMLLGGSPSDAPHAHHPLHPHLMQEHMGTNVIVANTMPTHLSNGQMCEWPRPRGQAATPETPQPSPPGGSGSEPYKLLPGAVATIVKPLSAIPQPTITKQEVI
# UCH37 DUB inh = inhibitors of human UCH37 deubiquitinase, primary screen, biochemical, Ub-AMC cleavage, fluorescence | Ubiquitin carboxyl-terminal hydrolase isozyme L5 (Homo sapiens), Q9Y5K5 | purified proteasome/UCH37 | inhibition, % (test concentration not listed) | 0.33% of 330,000 active;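 active means mean of two replicates above 20%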;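 further: 0% = compound-free wells with enzyme and 100% = wells lacking proteasome; stock transfer was 100 nL into about 20 µL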
#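 Signal – fluorescence, ex 355 nm, em 460 nm · System – Proteasome-bound UCH37 · Input – 0.15 nM proteasome as dispensed · Timing – 30 min preincubation with enzyme, 25 min cleavage at room temperature · Read-out basis – percent inhibition of cleavage signal versus uninhibited and no-proteasome wells · Medium – Tris-HCl pH 7.4 with ATP-MgCl2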
# LANA-H2B inh = blockers of LANA interaction with H2A/H2B – biochemical, FP readout, HTS, primary screen. cell-free LANA-H2A/H2B peptide, fluorescence polarization. 0.6% of 320,000 active. AID 2629, 2010. Protein LANA1 (Human herpesvirus 8 type P (isolate GK18)), Q9QR71. inhibition, % (concentration not given with the values); in the data active means inhibition mostly above about 10%, no sharp cut-off; inactive means mostly below about 6.7%;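 further: stock transfer was 7.5 nL into about 10 µL; 0% = median of vehicle wells and 100% = median of positive control wells; one replicate is shown; the record names a cut of 25% in any replicate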
# An asterisk follows results filed as active; i = inactive; x = no result given. Not all compounds are listed; the hit share may differ from the screen's.
SMILES,ALR inh,FGF22 binding,Beta2AR agonist,E coli growth,HNF4A DNA FP,UCH37 DUB inh,LANA-H2B inh
CC(=O)N1C[C@H]2CON(C)[C@H]2C[C@H]1c1cccc(-c2ccccc2C)c1,x,i,-2.0,x,-0.6,x,x
CC(C)Cn1c(N)c(C(=O)COC(=O)c2cc3ccccc3cc2O)c(=O)n(C)c1=O,-17.2,i,12.7,0.692,4.0,-1.2,4.7
Cc1ccc(N2C(=O)c3ccccc3C2Nc2ccccc2)nc1 (centres undefined),-7.5,i,-6.6,0.729,-2.0,4.3,-0.3
CCCCCOC(=O)Cc1c(O)c2ccccc2n(C)c1=O,59.0,x,-2.4,0.672,3.9,-11.7,3.8
Cc1cc(=O)[nH]c(SCC(=O)Nc2c(C)n(C)n(-c3ccccc3)c2=O)n1,-7.2,i,2.9,0.72,-0.2,4.2,5.7
Cn1c(N)c(C(=O)COC(=O)Cc2c(F)cccc2Cl)c(=O)n(C)c1=O,1.2,i,-6.3,0.691,2.6,-0.4,4.3
CCC(C)NC(=O)C(Cc1ccccc1)NS(=O)(=O)c1cccc2nsnc12 (centres undefined),-21.9,x,0.2,0.713,-0.3,3.4,-1.1
Cc1nc2cc(NC(=O)CSc3nc4c(C)cccc4cc3C#N)ccc2s1,-3.2,x,9.8,0.711,6.0,-0.1,1.2
COc1ccc(-c2noc(CCC(=O)N3CCN(Cc4ccccc4)CC3)n2)cc1,5.3,x,0.1,0.705,-0.6,0.6,-3.6
NC1=NC(=O)C(Cc2cc(Cl)ccc2Cl)S1 (centres undefined),x,x,4.8,0.724,-4.6,2.9,0.9
COc1ccc(Cl)cc1C=CC=NNS(=O)(=O)c1ccc(C)cc1,x,i,-4.7,x,0.6,x,x
N#Cc1ccc(NC(=O)Cn2cnc(S(=O)(=O)N3CCc4ccccc43)c2)cc1,-3.7,i,5.9,0.693,-3.1,1.7,-5.4
C=C(C)c1cccc(C(C)(C)NC(=O)N2CCCCC2CC)c1 (centres undefined),-15.0,x,5.9,0.681,2.4,-0.1,-2.2
O=C(NCC1CCCO1)NC1CCCCC1 (centres undefined),-32.6,x,4.1,0.701,2.1,4.9,9.9
C#CCOCCOCCOCCNc1nc(N2CCOCC2)nc(N2CCN(C(=O)[C@H]([C@@H](C)O)n3cc(CCCCN)nn3)CC2)n1,-8.2,i,2.6,x,-1.3,4.8,-3.9
CN(C(=O)CSc1nnc(-c2c[nH]c3ccccc23)o1)C1CCS(=O)(=O)C1 (centres undefined),-8.4,i,-12.5,0.686,-3.1,1.8,-5.0
COc1ccccc1C(=O)Nc1sc2c(c1C(=O)NCc1ccco1)CCCC2,3.3,x,-0.1,0.748,-0.4,-141.0,-0.3
COc1cccc(-c2nn(C)c3sc(C(=O)NCCCN(C)Cc4ccccc4)cc23)c1,2.8,i,20.4,0.68,1.1,-65.3,0.9
Cc1cc(C)nc(N/N=C/c2cn[nH]c2-c2ccc(F)cc2)n1,4.5,i,-6.9,x,0.6,x,-5.5
O=C(N/C(=C/c1cccc([N+](=O)[O-])c1)C(=O)N1CCCCC1)c1ccco1,-2.6,i,-11.0,0.682,-0.1,3.4,-4.1
CC(=O)NC12CC3CC(C1)CC(C(=O)Nc1nc4ccc(S(C)(=O)=O)cc4s1)(C3)C2,-2.1,i,6.8,0.726,3.7,6.0,-1.0
COc1ccc(NC(=O)CN(C)S(=O)(=O)c2ccc(Cl)cc2)cc1Cl,-6.2,x,12.7,0.669,-1.9,1.0,-4.1
Cc1ccc(C(=O)Nc2cnc3ccccc3c2)cc1,-3.5,x,-0.5,0.728,-0.1,-3.1,-0.9
O=C(CN(C(=O)CNC(=O)c1cccs1)c1ccc2c(c1)OCCO2)NC1CCCC1,-5.5,x,-6.6,0.669,5.9,2.4,-3.6
Cc1ccc(-c2csc3ncnc(-n4nnc5ccccc54)c23)cc1C,-6.1,i,2.5,x,3.8,x,0.9
CCc1cccc(CC)c1NC(=O)CN1CC(C)SC1=NC1CCCCC1 (centres undefined),-2.7,x,2.6,0.702,4.6,2.6,-1.6
CCC(=O)c1ccc(OC(C)C(=O)NC2(C#N)CCCCC2)cc1 (centres undefined),3.7,i,-1.7,0.719,8.5,2.2,-1.0
Cc1cccc(CCNC(=O)C2CCCN(c3ncnc4c3nc3n4CCCCC3)C2)c1 (centres undefined),-0.4,i,-3.0,0.677,-0.1,1.7,-0.3
O=C(COc1ccccc1-c1ccccc1)Nc1ccc(S(=O)(=O)NCc2ccco2)cc1,-13.1,x,-1.8,0.745,-1.5,0.5,-1.1
CCOCCCN(CC(=O)NC1CCCC1)C(=O)C(=O)Nc1ccc2c(c1)OCCO2,-9.3,x,8.0,0.647,1.0,2.1,4.3
Cc1cc(S(=O)(=O)NC2CCCCC2)ccc1OCC(=O)NCc1ccccn1,-1.7,x,1.8,0.637,1.6,4.0,-2.8
CC1CC(=O)N(CC(=O)NCc2ccc3c(c2)OCO3)c2ccccc2S1 (centres undefined),-5.4,x,8.4,0.671,-3.0,0.9,-4.1
Cc1cc(S(=O)(=O)N2CCOCC2)ccc1OCC(=O)Nc1cccc(F)c1,-14.6,i,6.6,0.658,-3.2,0.4,8.5
O=C(N1CCN(c2ccccc2)CC1)C(F)(F)C(F)(F)F,-0.3,x,2.8,0.75,0.6,0.3,-7.1
O=[N+]([O-])c1cccc(-c2ccc(SCc3cccnc3)nn2)c1,-4.7,i,9.1,0.668,-3.0,3.8,-0.6
Cn1c(CCN2CCCCC2)nc2cc([N+](=O)[O-])ccc21,3.9,i,3.2,0.671,-1.7,7.4,4.4
O=[N+]([O-])c1cc(Br)c2nsnc2c1N1CCOCC1,-6.0,i,2.9,0.66,-1.9,8.9,-0.8
Cc1ccc(NC(=O)C(C)OC(=O)c2cc(=O)[nH]c3ccccc23)cc1S(=O)(=O)N1CCOCC1 (centres undefined),x,i,11.3,0.714,0.3,-26.6,x
O=C(O)c1ccc2c(c1)C(=O)N(CCC1=CCCCC1)C2=O,4.7,x,-1.2,0.747,4.4,2.6,-0.6
CCN(CC)c1cc(C)c(C#N)c2nc3ccccc3n12,-8.0,i,-16.0,0.707,4.0,-162.2,-1.9
CCOC(=O)CC1NC(=O)c2ccccc21 (centres undefined),-1.7,x,8.4,0.737,2.8,0.4,-6.7
Cc1c(-c2cc[n+]([O-])cc2)oc2ccc(Br)cc2c1=O,5.8,i,x,x,x,x,-1.1
COCc1cc(=O)[nH]c(Nc2nc3ccc(C)cc3o2)n1,4.1,x,16.5,0.7,4.4,1.8,4.6
O=C(NNC(=O)c1ccccc1O)c1ccccc1O,x,i,-0.8,x,-2.4,x,x
C=CCn1c(SCC(=O)Nc2ccc(O)cc2)nc2sc(C)c(C)c2c1=O,x,i,-4.7,x,-0.9,x,x
CCOC(=O)c1ccc(NC(=O)COc2ccc(S(=O)(=O)NC(C)(C)C)cc2)cc1,x,x,12.6,0.738,2.5,0.4,5.7
O=C(CNc1n[nH]c(=O)[nH]c1=O)N/N=C/C1CC=CCC1 (centres undefined),6.5,i,-3.6,x,0.8,x,-3.5
Cc1ccccc1Nc1nn2c(=O)c3ccccc3nc2s1,-19.5,x,6.5,0.67,0.0,-1.5,-1.0
CCOC(=O)c1sc2ncn(CC(=O)NCC3CCCO3)c(=O)c2c1C (centres undefined),-12.6,x,-7.0,0.728,1.2,-0.8,-0.3
COc1ccc(C2CC(c3ccccc3C(F)(F)F)=NN2c2ccc(S(N)(=O)=O)cc2)cc1 (centres undefined),x,x,1.3,0.722,-22.7,i,x
Cc1nc2cc(C(F)(F)F)ccc2n1CCNc1nc(-c2cc(Cl)c(N)c(Cl)c2)cs1,-2.7,i,5.8,0.717,10.8,7.3,0.3
Cc1ccc2cc(C#N)c(SCc3nnc(-c4ccccc4[N+](=O)[O-])o3)nc2c1,0.8,x,10.7,0.699,0.8,3.8,-5.8
NC(=O)CNC(=O)[C@@H]1CC2(CC(c3ccc(Cl)cc3)=NO2)CN1C(=O)c1ccc(Br)cc1 (some centres undefined),-19.0,i,-8.7,x,-2.3,2.8,-6.0
CCOC(=O)C1CCN(C(=O)Cn2c(=O)c3cccn3c3cccnc32)CC1,-1.7,i,-5.8,0.713,-0.1,-2.5,2.7
COc1ccc(C(OC(=O)c2c(C)noc2C)C(=O)NC2CCCC2)cc1 (centres undefined),-6.0,i,4.0,0.655,-1.9,-0.9,0.6
CCCCn1c(N)c(N(CC(C)C)C(=O)CCCn2c(=O)oc3ccccc32)c(=O)[nH]c1=O,0.5,i,-3.5,0.644,1.1,0.8,3.8
CCCn1c(-c2cc(OC)c(OC)c(OC)c2)nc2nc3ccccc3nc21,16.8,x,-6.2,0.721,0.3,-16.7,-2.8
CCOc1ccc(C(=O)NCc2ccccn2)cc1,-0.7,i,-0.8,0.686,0.4,4.7,-0.3
Cc1ccc(S(=O)(=O)N/N=C\c2cccnc2)cc1,3.9,i,2.2,x,2.5,x,3.8
COCCNC(=O)C(OC(=O)c1ccco1)c1ccc(OC)cc1 (centres undefined),x,i,-5.8,0.704,-2.6,-0.3,x
# Continuation:
SMILES,ALR inh,FGF22 binding,Beta2AR agonist,E coli growth,HNF4A DNA FP,UCH37 DUB inh,LANA-H2B inh
COc1ccccc1CNC(=O)C1CCN(S(=O)(=O)c2c(C)noc2C)CC1,-7.5,x,1.1,0.702,2.2,1.3,1.0
CC(C)C(NC(=O)OCc1ccccc1)C(=O)NC(Cc1ccc(O)cc1)C(=O)O (centres undefined),-4.3,i,4.9,0.642,3.2,3.4,-2.1
C/C(=N\NS(=O)(=O)c1ccc(C)c([N+](=O)[O-])c1)c1ccc2c(c1)OCO2,22.6,i,-14.1,x,1.3,x,1.7
CN(C(=O)COC(=O)c1ccc(=O)n(Cc2ccccc2)n1)C1CCS(=O)(=O)C1 (centres undefined),-4.0,i,2.4,0.7,0.9,1.5,12.5
O=C(/C=C/c1ccccc1)N1CCN(S(=O)(=O)c2ccc(F)cc2)CC1,-5.6,x,0.1,0.735,2.5,-1.6,-0.1
CCN(CC)S(=O)(=O)c1cc(NC(=O)CN2C(=O)NC3(CCCc4ccccc43)C2=O)ccc1C (centres undefined),0.2,i,8.8,0.705,4.8,0.7,-4.8
CCOC(=O)N1CCN(C(=O)CN2C(=O)COc3ccc(S(=O)(=O)N4CCOCC4)cc32)CC1,12.0,i,1.4,0.7,2.6,4.2,x
CCC(=O)Oc1ccc2oc(=O)cc(C)c2c1,4.5,x,1.6,0.707,-1.0,2.3,2.1
O=[N+]([O-])c1ccc(NN=Cc2cccc3ccccc23)cc1,x,i,8.1,0.718,27.0,2.1,x
CC(C)C(O)(C#CCN1CCCCC1)C(C)C,-4.5,x,1.4,0.627,-1.3,0.6,-4.8
Cc1nc2ccccc2c(C(=O)O)c1-c1ccccn1,x,i,5.0,0.679,-1.6,-1.2,x
O=C(NCCN1CCCCC1)c1ccc(=O)oc1,x,x,2.4,0.671,2.6,-34.8,2.5
O=C(Nc1nnc(CCN2CCCCC2)s1)c1ccccc1,-4.3,i,-3.1,0.694,0.1,-3.7,-0.8
CCCCn1nc2cc(C(=O)NC3CCCc4ccccc43)ccc2c1OCC (centres undefined),-6.8,i,-4.7,0.675,-2.3,-19.6,1.1
Cc1ccc(NC(=S)NCC(O)c2ccccc2)c(C)c1 (centres undefined),1.1,i,6.4,0.612,-0.5,5.2,-1.0

# High-throughput results as filed in PubChem BioAssay.
